FGF22 binding: binders of human FGF22 protein, primary screen, FGF22 synaptogenesis inhibitor project, biophysical, thermal shift, single point. Fibroblast growth factor 22 (Homo sapiens), Q9HCT0. recombinant FGF22 thermal shift, SYPRO orange fluorescence; percent of sucrose octasulfate shift, DMSO zero. calls only at 9.99 µM. 340,000 compounds, 1.5% hits. AID 651658, 2012;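 active = melting point raised past a set limit in the mean and every replicate; inconclusive = no clear call; three in four hits are not shown here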
Target sequence (Q9HCT0 whole entry, looked up): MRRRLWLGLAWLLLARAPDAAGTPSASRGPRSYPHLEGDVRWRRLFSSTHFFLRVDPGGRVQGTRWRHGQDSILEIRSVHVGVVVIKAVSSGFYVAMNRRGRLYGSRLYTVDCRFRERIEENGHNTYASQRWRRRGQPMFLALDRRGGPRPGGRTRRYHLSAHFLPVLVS
Vif TR-FRET: inhibitors of Vif binding to APOBEC3G peptide, primary screen, biochemical, TR-FRET, GST-Vif 1-94, biotin-A3G peptide, dose response retest (AID 1117319); TR-FRET GST-Vif / biotin-A3G peptide binding; higher % means a stronger effect; test concentration not given here; strong numbers were not always called active; 260,000 compounds, 0.57% hits; inhibition, %; hits with a dose series show IC50 in µM;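 active = above the screen mean plus three standard deviations and confirmed in dose response; inconclusive = results disagree or hit not tested in dose response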;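 note: Vif residues 1-94 fused to GST binding biotinylated APOBEC3G peptide 110-148; 0% = full assay without inhibitor and 100% = GST in place of GST-Vif; retest series ran down from 100 µM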
AF4-AF9 inh: inhibitors of AF4 peptide binding to AF9, primary screen, biochemical, AlphaScreen, biotin-AF4 peptide, FLAG-AF9, single point. inhibition, % at 10 µM. Protein AF-9 (Homo sapiens), P42568. AID 651704, 2012. 350,000 compounds, 0.47% hits;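 active = every replicate reaching a set inhibition limit, whatever the replicate mean, cut at about 25% in these data; inconclusive = mean inhibition reaches that limit but some replicates miss it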;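 note: 0% = plate neutral control median and 100% = total signal loss; the record names both 10 and 1 µM as test concentration; the first replicate is given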
ALR H2O2 inh: inhibitors of human ALR sulfhydryl oxidase, primary screen, biochemical, H2O2 detection, HRP-luminol luminescence, single point; FAD-linked sulfhydryl oxidase ALR (Homo sapiens), P55789; purified ALR, DTT oxidation; inhibition, % (test concentration not listed); 290,000 compounds, 3.8% hits;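 active = mean and each replicate at 75% or more; inconclusive = only one of the two met; inactive = neither met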;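 note: stock transfer was 7.5 nL into about 7.5 µL; 0% = neutral wells and 100% = wells with inactivated enzyme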
Target sequence (P55789 whole entry, looked up): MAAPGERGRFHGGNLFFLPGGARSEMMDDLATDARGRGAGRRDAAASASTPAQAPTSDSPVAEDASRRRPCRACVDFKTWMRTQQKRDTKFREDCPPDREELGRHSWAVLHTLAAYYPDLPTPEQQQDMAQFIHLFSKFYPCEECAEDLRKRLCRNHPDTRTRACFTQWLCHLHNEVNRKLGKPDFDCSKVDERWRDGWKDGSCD
Ecoli growth: E. coli growth inhibition, primary screen, OD600. Escherichia coli growth, 23 h; stronger effect = lower value. OD600 absorbance (no concentration beside the values). 330,000 compounds, 0.21% hits. AID 1053175, 2014;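 active = OD600 absorbance below the run mean of sample wells minus 3.6 SD, in any replicate, cut at about 0.56 in these data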;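 note: stock transfer was 300 nL into about 60 µL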
HNF4A DNA FP: change in binding of human HNF4A to DNA, primary screen, biochemical, fluorescence polarization, FITC-DNA | Hepatocyte nuclear factor 4-alpha (Homo sapiens), P41235 | activity change, % at 10 µM | 360,000 compounds, 0.3% hits | 1 h | AID 1224865, 2016; in the data active = activity change above about 30%, passing the limit was not always enough;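 note: controls were the assay level and a saturating level of protein; the project sought stronger binding though the title names inhibitors; some compounds called inactive have numbers as strong as hits; positive values seem to mean higher polarization but the record does not say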
Target sequence (P41235 whole entry, looked up): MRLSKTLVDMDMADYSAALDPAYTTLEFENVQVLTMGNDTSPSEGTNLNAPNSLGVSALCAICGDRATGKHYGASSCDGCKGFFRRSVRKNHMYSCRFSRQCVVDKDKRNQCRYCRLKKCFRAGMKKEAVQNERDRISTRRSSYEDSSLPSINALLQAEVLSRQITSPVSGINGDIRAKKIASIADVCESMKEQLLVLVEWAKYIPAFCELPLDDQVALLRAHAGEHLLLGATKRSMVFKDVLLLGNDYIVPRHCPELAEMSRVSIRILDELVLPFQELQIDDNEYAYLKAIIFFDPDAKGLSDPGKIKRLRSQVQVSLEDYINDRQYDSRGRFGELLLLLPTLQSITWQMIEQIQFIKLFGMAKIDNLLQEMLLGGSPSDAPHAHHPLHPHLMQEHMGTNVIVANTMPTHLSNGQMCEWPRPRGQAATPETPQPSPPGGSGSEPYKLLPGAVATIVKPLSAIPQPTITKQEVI
Ecoli rRNA inh: reduced GFP signal of wild-type E. coli, primary screen, bacterial rRNA inhibitor project, GFP/RFP fluorescence, OD600, single point | 350,000 compounds, 1.6% hits | GFP signal change (wild-type ribosome), % (concentration not given with the values) | E. coli WT GFP vs humanized-ribosome RFP mutants, 24 h; stronger effect = lower value; DMSO median 0, no signal -100 | AID 720706, 2013;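 active = significant combined selectivity score with lowered wild-type GFP, culture density cut under 30%, mutant RFP and density less affected; inactive = any of these conditions unmet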; note: one replicate is shown; some compounds called inactive have numbers as strong as hits
Ecoli rRNA inh OD600: further read-out of Ecoli rRNA inh, marked with its call; OD600 change, %; measured here: OD600 growth;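 optical density of the mix in the first replicate; 0 = DMSO median and -100 = no signal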
Ecoli rRNA inh RFP: also measured in Ecoli rRNA inh; calls as there; RFP signal change, %; measured here: RFP humanized mutant strains;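 first replicate; 0 = DMSO median and -100 = no signal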
Active calls of the source: *; i = inactive; ? = inconclusive; · = not tested or not shown. An excerpt. The share of hits here may be higher or lower than overall.

SMILES	FGF22 binding	Vif TR-FRET	AF4-AF9 inh	ALR H2O2 inh	Ecoli growth	HNF4A DNA FP	Ecoli rRNA inh	Ecoli rRNA inh OD600	Ecoli rRNA inh RFP
Cc1cccc(-n2nc3c(c2NC(=O)c2c(F)cccc2F)CS(=O)(=O)C3)c1C	i	·	-6.5	-4	0.64	0.6	3	11	2.2
CCOC(=O)N1CCN(C(=O)C(C)N(c2ccc(Oc3ccccc3)cc2)S(C)(=O)=O)CC1 (centres undefined)	·	-4%	·	-14	0.71	-0.4	·	·	·
CCOC(=O)c1[nH]ncc1CN1CCN(Cc2ccccc2)C(CCO)C1 (centres undefined)	i	24%	3.2	2	0.7	-4.0	-6	14	2.3
CN1C(C)(C)CC(=NO)CC1(C)C	i	-7%	2.1	·	0.65	2.7	9	7	-1.3
O=C(c1ccc(=O)[nH]c1)N1CCN(S(=O)(=O)c2cc(C(F)(F)F)ccc2Cl)CC1	i	·	0.3	·	0.64	0.7	4	7	-1.3
Cc1cccc(S(=O)(=O)N[C@H]2CC[C@@H](CCNC(=O)c3cnccn3)O[C@@H]2CO)c1	i	·	-0.2	·	·	·	0	3	-2.6
CNC[C@H]1Oc2ccc(NC(=O)C3CC3)cc2C(=O)N([C@H](C)CO)C[C@@H]1C	i	·	-2.2	·	·	·	5	13	-2.5
C[C@H]1CN([C@@H](C)CO)S(=O)(=O)c2ccc(-c3cccnc3)cc2O[C@H]1CN(C)C(=O)CC1CC1	i	·	0.1	·	·	·	0	-5	-0.4
O=C(CCCn1c(SCC(=O)NCC2CCCO2)nc2ccccc2c1=O)NCC1CCCO1 (centres undefined)	·	4%	·	-8	0.67	-3.4	·	·	·
CC(NC(=O)c1cccc(F)c1)C(c1cccs1)N1CCN(C)CC1 (centres undefined)	i	-3%	-28	-4	0.69	-0.8	12	8	-8.6
CCc1ccccc1NC(=O)c1cc(-c2ccc3c(c2)OCO3)on1	i	·	1.0	·	0.68	-2.4	2	11	-1.5
O=C1C2C3C=CC([C@@H]2C(=O)N1C1CCCCC1)[C@H]1C(=O)N(C2CCCCC2)C(=O)C31 (some centres undefined)	·	-4%	·	0	0.73	-1.4	·	·	·

Next section, overlapping the part above by three compounds.
SMILES	FGF22 binding	Vif TR-FRET	AF4-AF9 inh	ALR H2O2 inh	Ecoli growth	HNF4A DNA FP	Ecoli rRNA inh	Ecoli rRNA inh OD600	Ecoli rRNA inh RFP
CC(NC(=O)c1cccc(F)c1)C(c1cccs1)N1CCN(C)CC1 (centres undefined)	i	-3%	-28	-4	0.69	-0.8	12	8	-8.6
CCc1ccccc1NC(=O)c1cc(-c2ccc3c(c2)OCO3)on1	i	·	1.0	·	0.68	-2.4	2	11	-1.5
O=C1C2C3C=CC([C@@H]2C(=O)N1C1CCCCC1)[C@H]1C(=O)N(C2CCCCC2)C(=O)C31 (some centres undefined)	·	-4%	·	0	0.73	-1.4	·	·	·
Fc1cccc(CNC2CCN(CCc3ccccc3)CC2)c1	i	·	-0.5	1	0.69	0.1	6	1	-0.8
N#Cc1ccc(-c2ccc([C@@H]3[C@@H](CO)N4C(=O)CN(C(=O)C5CCCCC5)C[C@@H]34)cc2)cc1	i	·	-1.9	·	·	·	1	0	12
COc1ccccc1NC(=O)N1CC[C@@H]2[C@H]1c1cc(-c3ccc(F)cc3)ccc1N(C)[C@@H]2CO	i	·	1.0	·	·	·	-3	7	-0.4
CCOc1ccc(-c2csc(NNC3=NCCCCC3)n2)cc1	i	2%	7.4	99*	0.68	3.6	14	9	1.1
Cc1cc(S(=O)(=O)NCC(C)C)ccc1OCC(=O)NC1CC1	i	·	-0.3	-3	0.7	1.8	8	1	-2.9
COC(=O)C[C@H]1C[C@@H]2c3cc(NS(C)(=O)=O)ccc3O[C@@H]2[C@H](CO)O1	i	·	-4.4	·	·	·	9	6	-1.8
Cc1cc(C(=O)N/N=C/c2ccncc2)c2ccccc2n1	i	-4%	-0.1	-1	·	-3.8	8	6	0.0
CCN1C(=O)CSC1=Nc1ccc(Cl)c(Cl)c1	i	3%	1.1	-18	0.65	3.1	-27	-48	-7.2
Cc1nc(NC(=O)c2ccccc2)sc1C1(C)CC(c2c(Cl)cccc2Cl)=NO1 (centres undefined)	i	8%	-1.2	·	·	-2.0	9	13	6.4
CC(=O)c1ccc(NC(=O)COC(=O)c2ccc(F)cc2F)cc1	i	·	-5.9	-2	0.64	1.9	1	3	1.0
CC(C)C#Cc1ccc2c(c1)O[C@H](CN(C)Cc1ccccc1)[C@@H](C)CN([C@@H](C)CO)S2(=O)=O	i	·	6.3	·	·	·	-1	-7	-0.5
Cc1sc2ncnc(N3CCC(C(=O)N(C)CC(=O)Nc4ccc(Cl)c(C(F)(F)F)c4)CC3)c2c1C	i	1%	-0.4	·	0.64	-0.4	1	5	2.2
O=C(CN1CCOCC1)NCc1cc([N+](=O)[O-])ccc1O	i	·	-3.5	-11	0.69	-3.6	16	10	1.9
Oc1ccc(-c2csc(-c3ccccc3)n2)cc1O	i	21%	19	99*	0.62	-5.5	-34*	-12*	-7.6*
CCCCn1nnnc1C(c1ccccc1)N1CCN(c2ccc(C(F)(F)F)cn2)CC1 (centres undefined)	i	·	-4.1	·	·	3.6	5	4	1.8
O=C(C[C@@H]1CC[C@H](NC(=O)Nc2ccccc2F)[C@@H](CO)O1)NCc1ccc(-c2ccccc2)cc1	i	·	-0.8	·	·	·	-11	-4	2.9
CC1=CC(c2ccccc2)n2nc(NC(=O)CCC(=O)O)nc2N1 (centres undefined)	i	?	-12	0	0.66	1.0	5	13	3.4
Cc1cc(C)c(C)c(S(=O)(=O)N2CCN(CC(=O)Nc3sccc3C#N)CC2)c1C	i	-38%	-30	-13	0.69	2.3	3	-3	2.7
O=C(O)c1ccccc1C(=O)NCc1cccnc1	·	-6%	·	·	0.73	0.1	·	·	·
COC(=O)c1cc(-c2cccc(OC)c2)c2c(=O)[nH]c(=O)n(C)c2n1	i	-7%	2.2	-23	0.67	3.0	-2	0	-3.0
CNC(=S)Nc1ccc(N2CCCC2)c(S(=O)(=O)Nc2ccc(OC)cc2)c1	i	1%	4.7	2	0.71	1.1	·	·	·
O=C(Nc1ccccc1)Nc1ccc2ocnc2c1	i	6%	0.6	38	0.7	3.4	12	11	-2.5
CC(C)OC(=O)c1cc(NC(=S)Nc2ccc([N+](=O)[O-])cc2)cc(C(=O)OC(C)C)c1	·	-1%	·	-4	0.71	2.9	·	·	·
O=C(CCS(=O)(=O)c1ccc(Cl)cc1)Nc1nc(-c2cccnc2)cs1	i	-7%	-0.2	-2	0.69	-1.2	10	5	3.6
O=C(NC1CCCCC1)C(=S)NCCc1ccccc1	·	-9%	-0.9	-18	0.71	0.5	16	7	1.5
Cc1ccc(S(=O)(=O)NCCSc2ccccc2)cc1[N+](=O)[O-]	·	-2%	·	-4	0.71	1.5	·	·	·
Cc1nc(Cc2ccc(OC(C)C)cc2)[nH]c(=O)c1CC(=O)O	i	-6%	-1.3	-11	0.71	-0.2	7	6	-7.8
CCc1cccc(C)c1NC(=O)CCCn1c(=O)c2cccn2c2cccnc21	i	-14%	-3.7	1	0.68	-0.3	7	19	-0.5
CCC(=O)NC(Nc1ncc(C)s1)(C(=O)OC)C(F)(F)F (centres undefined)	·	18%	·	-3	0.68	-2.2	·	·	·
Cc1nc2ccc(NC(=O)c3ccc(Cl)s3)cc2s1	i	-15%	6.0	-155	0.78	-0.8	5	5	-0.6
Cc1ccc(N(Cc2ccccc2)C(=O)CN2C(=O)NC3(CCCC3)C2=O)cc1	i	·	-0.6	9	0.69	2.8	-14	-16	8.0
Cc1cnc(NC(=O)c2ccc(OCC3CCCO3)cc2)s1 (centres undefined)	i	·	1.6	-1	0.61	6.4	2	8	-2.7
COc1ccc(CC(=O)O/N=C(\N)c2ccc(C)cc2)cc1	i	1%	0.5	-4	0.65	-0.6	-22*	-17*	1.5*
Cc1ccc(F)cc1NC(=O)C1CCCN(c2ncccn2)C1 (centres undefined)	i	-2%	-6.3	-23	0.69	-0.1	5	-4	-6.7
COc1cccc(CNC(=O)[C@@H]2CCCN2C(=O)[C@@H]2CCCN2S(=O)(=O)c2ccc(OC)c(C)c2)c1	i	·	-4.7	·	·	1.8	-7	1	8.7
O=c1c(-c2ccnn2-c2cccc(Cl)c2)cnc2n1CCS2	·	6%	·	0	0.71	1.4	·	·	·

Profiles as entered above. Order of values: FGF22 binding | Vif TR-FRET | AF4-AF9 inh | ALR H2O2 inh | Ecoli growth | HNF4A DNA FP | Ecoli rRNA inh | Ecoli rRNA inh OD600 | Ecoli rRNA inh RFP
Cc1cccc(S(=O)(=O)N[C@H]2CC[C@@H](CCNC(=O)c3cnccn3)O[C@@H]2CO)c1 is listed as i | · | -0.2 | · | · | · | 0 | 3 | -2.6
Cc1cc(S(=O)(=O)NCC(C)C)ccc1OCC(=O)NC1CC1 is listed as i | · | -0.3 | -3 | 0.7 | 1.8 | 8 | 1 | -2.9

(more compounds)
SMILES	FGF22 binding	Vif TR-FRET	AF4-AF9 inh	ALR H2O2 inh	Ecoli growth	HNF4A DNA FP	Ecoli rRNA inh	Ecoli rRNA inh OD600	Ecoli rRNA inh RFP
COc1ccc(-c2nc(CS(=O)CC(=O)NC3CCCCC3)c(C)o2)cc1 (centres undefined)	i	-2%	-0.2	66	0.71	1.4	-5	6	-2.0
CC(C)=C1SC(N2CCN(c3cccc(Cl)c3)CC2)=NC1=O	·	-11%	·	-2	0.68	-1.5	·	·	·
O=C(NCCCn1ccnc1)/C(=C/c1ccc(Cl)cc1)NC(=O)c1ccccc1	i	·	5.1	-4	0.7	2.7	5	0	3.2
O=C(NCC1CCCCC1)NCC1CCCCC1	i	·	-2.3	·	·	-0.1	6	5	-0.1
COCCN(C(=O)CCc1ccccc1OC)c1nnc(-c2cccnc2)s1	i	·	-1.7	-6	0.7	1.3	-23	-26	-3.4
CCOC(=O)C(C)(C)Sc1nc2c(cnn2-c2ccc(Cl)cc2)c(=O)[nH]1	i	1%	-1.9	40	0.74	-2.6	0	-1	0.1
Cc1ccc(-c2c(C#N)c(N)n(-c3ccc(Cl)cc3)c(=O)c2C#N)cc1	i	·	-2.3	·	·	-1.3	-6	-21	1.2
Fc1ccc(C2CC(c3cccs3)=NN2c2ccccc2)cc1 (centres undefined)	i	·	-42	·	0.67	-1.4	10	16	5.5
FC(F)(F)c1cccc(N2CCN(c3nnnn3-c3ccccc3)CC2)c1	·	30%	·	37	0.72	3.7	·	·	·
CCC(C)CN1C(=O)CN(S(C)(=O)=O)CC1(C)C(=O)Nc1ccc2c(c1)OCCO2 (centres undefined)	i	·	·	·	·	1.8	11	6	0.5
COc1ccccc1/C=C/CN1CCC(n2nccc2NC(=O)CCc2ccccc2)CC1	i	·	12	-17	0.66	-1.0	2	-17	3.9
CCOc1cccc2sc(N(CCCN(C)C)C(=O)c3ccc(S(=O)(=O)N(CC)Cc4ccccc4)cc3)nc12	i	-3%	20	-6	0.71	4.2	-54	-80	-17
COc1ccc(-n2nnnc2/C=C\Nc2ccccc2C(=O)c2ccccc2)cc1	·	3%	·	-12	0.75	-1.1	·	·	·
COc1ccc(-c2nc3cc(C)ccn3c2NCC2CCCO2)cc1OC (centres undefined)	·	·	·	74	0.75	0.4	·	·	·
